Screening data (PubChem BioAssay)
S aureus helic – blocks Staphylococcus aureus DNA helicase. purified S. aureus helicase, fluorescence unwinding assay; about half of the hits fall short of the stated cut. inhibition, %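 (tested at about 80 µM)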. hit rate 0.05% among 120,000. AID 485395;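 active means both duplicates at 50% or more, or one of them with a favoured structure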;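 further: 0% = mean of negative control wells and 100% = mean of positive control wells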
MgrA DNA FP – alters Staphylococcus aureus MgrA binding to DNA. inhibition, %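 (about 10 µg/mL by stock and volumes)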. hit rate 0.13% among 84,000. fluorescence polarization;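 active means above 50% in either of two replicates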;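 further: 0% = protein plus DNA without compound and 100% = DNA alone without protein; higher means less MgrA bound to DNA so lower polarization; one replicate is shown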
An asterisk follows results filed as active; · = not tested or not shown; & = joins results of further samples. These rows are one share of the data; rates above refer to the full screens.

SMILES | S aureus helic | MgrA DNA FP
COC1=C[C@H]2C3=C([C@H]2C1=O)[C@@H](NC(C)=O)CCc1cc(OC)c(OC)c(OC)c13 | · | -0.4
COc1ccc(N)cc1 | -9.0 | ·
COC(=O)c1c(C)n(Cc2ccccc2)c2ccc(O)cc12 | 1.0 | 1.6
CN1CCN(c2ccc(C(F)(F)F)cc2N)CC1 | · | -1.1
CCC1C2CC3C4N(C)c5ccccc5C45CC(C2C5O)N3[C@@H]1O (some centres not stated) | 2.0 | ·
NC(=S)Nc1ccccc1 | 7.0 | 0.2
CC1(C)CC(=O)C=C(NCCN2CCN(C(=O)Cc3ccc(Cl)cc3)CC2)C1 | -12.0 | ·
CCOC(=O)c1noc2ncnc(N(Cc3ccco3)C3CCN(C)CC3)c12 | 9.0 | ·
O=S1(=O)N(Cc2ccccc2)CCCN1Cc1ccc(Cl)cc1 | 5.0 | ·
COCCn1cc(C(=O)O)c2ccccc21 | 11.0 | -1.2
COc1cc(C=C2C(=O)NC(=O)NC2=O)cc(Cl)c1OCCOc1ccccc1 | · | 7.0
COc1cc(/C=c2/sc3nc4ccccc4n3c2=O)cc(OC)c1OC(=O)N(C)C | · | -2.0
COc1ccc(CCNCC2CCCO2)cc1 (configuration not stated) | 11.0 | ·
c1ccc(C2N3CCCN23)cc1 (configuration not stated) | 4.0 | -2.0
CC(C)=CCC12CN3CCN(CC(C3)C1=O)C2 | 7.0 | ·
O=C(O)C1CSC(c2cccnc2)=N1 (configuration not stated) | 17.0 | ·
CCCCCCCCCCCCCCCC[N+](C)(C)C | · | 1.0
FC(F)(F)c1ccccc1NC1=NCCCS1 | 7.0 | ·
NC(=O)CS(=O)C(c1ccccc1)c1ccccc1 (configuration not stated) | · | -6.0
CCCS(=O)(=O)N1CCCC(C(=O)N2CCC3(CC2)OCCO3)C1 (configuration not stated) | -1.0 | ·
CCOC(=O)C(Cc1c[nH]c2ccccc12)NC(=O)C(Cc1ccc(N(CCCl)CCCl)cc1)NC(C)=O (configuration not stated) | · | -3.6
CC1CSC(Nc2ccccc2C(C)C)=N1 (configuration not stated) | -11.0 | 0.3
CN1CCc2nc3sc(C(=O)C(C)(C)C)c(N)c3cc2C1 | 12.0 | 3.1
CCc1nn(C(C)C(=O)N2CCC3(CC2)OCCO3)c(=O)c2cc3occc3n12 (configuration not stated) | -11.0 | ·
CCC1(c2cccc(O)c2)CCCCN(C)C1 (configuration not stated) | · | 1.1
COc1cc(NC(=O)CCc2nc(C3=CCN(C)CC3)no2)cc(OC)c1OC | -4.0 | ·
CC1(C)CC(Nc2nc(Cl)c(C#N)c(Cl)c2Cl)CC(C)(C)N1 | -15.0 | ·
CNCCc1c[nH]c2ccccc12 | · | 0.5
CN(C)/N=C/c1cn(C)c2ccccc12 | -9.0 | ·
CCN=C1N=C(c2ccccc2)N=P(NCC)(NCC)N1 | 0.0 | 2.5
COCCNc1cnn(C23CC4CC(CC(C4)C2C(=O)O)C3)c(=O)c1Cl (configuration not stated) | 19.0 | ·
COc1ccc(NC2=NP(N(C)C)(N(C)C)=NC(c3ccccc3)=N2)cc1 | 0.0 | ·
Cc1ccc2c(c1)C1CN(C)CCC1N2C(=S)Nc1cccnc1 (configuration not stated) | 2.0 | ·
CCn1c(O)c(C=Nc2ccc(N3CCOCC3)c(Br)c2)c(=O)n(CC)c1=S | 6.0 | 2.4
CC(C)c1ccc(O)cc1 | -11.0 | ·
CC(C)(C)N1C(=O)NC(=O)/C(=C/c2ccccc2Cl)C1=O | 8.0 | 10.6
CCCCn1c(C)c(C(=O)OCC)c2cc(OC(=O)c3cccc(Cl)c3)c3ccccc3c21 | · | 0.3
Cc1nc2cc(-c3ccccc3)nn2c(C)c1CCC(=O)N1CCC2(CC1)OCCO2 | -17.0 | ·
CN(C)C(=O)Oc1cccc(NC(=O)c2c(F)cccc2F)c1 | · | 3.1
CCOc1ccccc1C=C(C#N)C#N | · | 1.4
O=C1CNC(c2ccccc2)c2cc(Br)ccc2N1 (configuration not stated) | 9.0 | ·
CN1C2CCC1CC(=NOC(=O)c1ccc([N+](=O)[O-])cc1)C2 | · | 5.5
CCOC(=O)c1cc(C(C)(C)C)nc(OC(=O)N(C)C)c1C#N | · | -1.9
C[C@@H]1CN(C2CCC(C#N)(c3ccc(F)cc3)CC2)CC[C@]1(C(=O)O)c1ccccc1 (some centres not stated) | · | 1.1
CCOC(=O)c1c(NC(=O)C2C(C)(C)C2(C)C)sc2c1CCC2 | 8.0 | 4.2
OC1(c2ccccc2)CCNC1 (configuration not stated) | 0.0 | -0.2
Fc1ccc(CN2CCN(Cc3ccccc3)CC2)cc1 | 2.0 | -5.6
CC(C)OC12Oc3ccccc3C=C1N1CCC2CC1 (configuration not stated) | 1.0 | 1.0
CC1=NN(c2ccccc2)C(=O)C1/C=C1\C(=O)NC(=O)N(c2cc(C)cc(C)c2)C1=O (configuration not stated) | · | -1.0
CCC(C)C12CN3CCN(CC(C)(C3)C1O)C2 (configuration not stated) | 13.0 | 6.8
CCC(=O)N(Cc1ccc(OC)c(OC)c1)C1CC(C)N(C)CC1C (configuration not stated) | 4.0 | ·
COc1ccc(OC)c([N+](=O)[O-])c1/C=C/[N+](=O)[O-] | · | 4.3
OC[C@@H]1CCCN2CCCCC12 (some centres not stated) | 25.0 | ·
CCCCC/C=C\C/C=C\C/C=C\C/C=C\CCCC(=O)NCC(=O)O | · | 0.8
CCOC(=O)c1c(C)n(Cc2ccccc2)c2ccc(OC(C)=O)cc12 | 1.0 | -1.5
Cc1c(O)ccc(C(=O)CN2CC(C)OC(C)C2)c1O (configuration not stated) | -22.0 | ·
CC(=O)N(C1=NCCCS1)c1ccc(C)cc1 | 11.0 | 0.7
Cc1cc(OC(=O)N(C)C)nc(SCC(=O)C(C)(C)C)n1 | · | -0.8
CCC(Cc1cc(OC)c(C)cc1OC)NC(=O)c1ccc(F)c(F)c1 (configuration not stated) | 18.0 | ·
OC(CN1CCC(c2c[nH]c3ccccc23)CC1)C(F)(F)F (configuration not stated) | · | -2.6

Arranged by length of the SMILES (high to low): 5 of the compounds above.
SMILES | S aureus helic | MgrA DNA FP
COc1ccc(OC)c([N+](=O)[O-])c1/C=C/[N+](=O)[O-] | · | 4.3
CCC(Cc1cc(OC)c(C)cc1OC)NC(=O)c1ccc(F)c(F)c1 (configuration not stated) | 18.0 | ·
CCC(=O)N(Cc1ccc(OC)c(OC)c1)C1CC(C)N(C)CC1C (configuration not stated) | 4.0 | ·
CC(C)OC12Oc3ccccc3C=C1N1CCC2CC1 (configuration not stated) | 1.0 | 1.0
CC(=O)N(C1=NCCCS1)c1ccc(C)cc1 | 11.0 | 0.7

(list continues)
SMILES | S aureus helic | MgrA DNA FP
Clc1ccc(CNC2CN3CCC2CC3)cc1 (configuration not stated) | 8.0 | 0.2
CCn1cc(C(=O)O)c2ccccc21 | · | -3.7
Cc1c(NC(=O)C(C)OC(=O)Cc2ccccc2)c(=O)n(-c2ccccc2)n1C (configuration not stated) | 9.0 | ·
Cc1cc(Cc2cc(C)c(N)c(C)c2)cc(C)c1N | -16.0 | ·
O=C(C1CCN(c2nc3ccc(Br)cc3s2)CC1)N1CCC2(CC1)OCCO2 | -1.0 | ·
COc1ccccc1N1CCN(C(=O)C2c3ccccc3C(=O)N3CCC(C)CC23)CC1 (configuration not stated) | -26.0 | ·
COc1cc(C(=O)CN(C)C2CCCCC2)cc(OC)c1OC | 29.0 | ·
CN1C2CCC1CC(=NOC(=O)c1ccc(F)cc1)C2 | 16.0 | ·
CN(C)C(Cc1ccc(C#N)cc1)C(=O)c1ccccc1 (configuration not stated) | -16.0 | ·
O=C(COCC1CCCN2CCCCC12)Oc1ccccc1 (configuration not stated) | -3.0 | 3.6
CN1CC2CCC1C/C(=N/O)C2 (configuration not stated) | · | -0.3
COc1cc(C=C2C(=O)NC(=S)NC2=O)cc(OC)c1OC | · | 7.0
CCCN(CCO)C1CCCC(C)C1 (configuration not stated) | 16.0 | -1.5
COCc1cc(OC(=O)N(C)C)nc(Cc2c(Cl)cccc2Cl)n1 | · | -1.4
CCOc1cc(CNC2CN3CCC2CC3)ccc1OCc1ccccc1 (configuration not stated) | -9.0 | -2.0
Cc1cccc(CN2CCNCC2)c1 | -3.0 | ·
O=C1CCCC2C3CCCN4CCCC(CN12)C34 (configuration not stated) | -38.0 | ·
ON=C1CC2CCCC(C1)N2Cc1cccs1 | · | 1.2
O=C1NC(=O)C(C2CCS(=O)(=O)C2)C(=O)N1 (configuration not stated) | 13.0 | ·
O=C(c1ccccc1)c1cc(Cl)ccc1NC(=O)C(F)(F)F | · | -0.6
O=C(c1ccc2ccccc2c1)C12CN3CN(CN(C3)C1)C2 | 10.0 | 2.9
COC(=O)C1C2c3ccccc3C(c3ccccc32)C1C(=O)OC (configuration not stated) | · | -3.4
O=C(CN1CCCCC1)Nc1ccc(Cl)cc1C(=O)c1ccccc1Cl | · | -2.5
CN1CCC2(CC1)Nc1ccccc1S2 | · | 3.0
N#CCc1ccsc1 | -5.0 | ·
COC(=O)C1=C(N)Oc2cc(C)oc(=O)c2C12C(=O)Nc1ccccc12 (configuration not stated) | 0.0 | 18.6
Cc1ccccc1NC1=NC(C)(C)CS1 | 8.0 | -1.5
CN1CCN(c2cc(Cl)nc(N)n2)CC1 | · | 0.7
c1cncc(C2Nc3ccccc3-n3cccc32)c1 (configuration not stated) | · | 4.2
Cc1cccc(NC2=NC(C)CS2)c1 (configuration not stated) | -9.0 | -0.3

Record cards, as listed above. Order of screens: S aureus helic | MgrA DNA FP
CCOC(=O)c1cc(C(C)(C)C)nc(OC(=O)N(C)C)c1C#N as listed: · | -1.9
COC1=C[C@H]2C3=C([C@H]2C1=O)[C@@H](NC(C)=O)CCc1cc(OC)c(OC)c(OC)c13 as listed: · | -0.4
CC1CSC(Nc2ccccc2C(C)C)=N1 (configuration not stated) as listed: -11.0 | 0.3
CNCCc1c[nH]c2ccccc12 as listed: · | 0.5

Later entries:
SMILES | S aureus helic | MgrA DNA FP
CC1(C)CN=C(Nc2ccc(F)c(Cl)c2)S1 | · | 0.1
N#CC(C#N)=NNc1ccc(OC(F)(F)F)cc1 | · | 1.0&0.3
CCC(C)C(=O)O[C@H]1[C@H](O)C2C(CN3CC(C)CCC3[C@@]2(C)O)C2C[C@]34O[C@]5(O)C(OC(=O)C(C)(O)CC)CC[C@@]3(C)C5C(OC(C)=O)[C@@H](OC(C)=O)C4[C@@]21O (some centres not stated) | · | -1.6
Fc1ccccc1CN1CCN(Cc2ccccc2F)CC1 | 1.0 | -0.5
N#Cc1c(/N=C/c2ccc(O)cc2O)sc2c1C1CCN2CC1 | -118.0 | ·
CCOC(=O)c1c(N(C(C)=O)C(C)=O)n(CCCOC)c2nc3ccccc3nc12 | 9.0 | ·
Fc1c(F)c2c(c(F)c1Cl)Oc1ccccc1O2 | 14.0 | ·
CCOC(=O)C1=C(C)N(C)C2(C)CC1c1ccccc1O2 (configuration not stated) | 3.0 | -1.1
CC(C)n1cc(C(=O)N(C2CC2)C(C(=O)NC2CCCC2)c2ccccc2)cn1 (configuration not stated) | 6.0 | 4.0
O=C(Nc1ccccc1)OC1CN2CCC1CC2 (configuration not stated) | -6.0 | ·
O=c1cccc2n1CC1CNC[C@@H]2C1 | · | -0.2
CC(C)(C)C1CCC(N2CCOCC2)CC1 (configuration not stated) | 0.0 | 2.7
O=C(c1cc2ccccc2o1)N1CCN(c2ccccc2)CC1 | 2.0 | -1.5
O=C1CSC2N1CCNC21CCCCC1 (configuration not stated) | 10.0 | 0.1
CCOc1cc(CN2CCN(C(=O)COc3ccc(C)cc3)CC2)ccc1OC | 4.0 | -0.2
COc1cc(CN2CC=C(c3ccc(F)cc3)CC2)cc(OC)c1 | 0.0 | -3.0
CC1(C)C(C=C(Cl)Cl)C1C(=O)OC(C#N)c1cccc(Oc2ccccc2)c1 (configuration not stated) | · | -7.6
CN1CCN(Cc2ccc(O)c3ncccc23)CC1 | -9.0 | 13.2
O=C1NC(=S)NC(=O)C1=Cc1ccc(Cl)cc1 | · | 14.0
CC(=O)O[C@H]1CC[C@@]2(C)C(=CCC3C2CC[C@]2(C)C(=O)CCC32)C1 (some centres not stated) | · | 0.9
O=C(NCNC(=O)NC1C(=O)NC(=O)N1CO)NC1C(=O)NC(=O)N1CO (configuration not stated) | · | -2.2
O=C(Cc1ccccc1)N1CCN(CCCc2ccccc2)CC1 | 2.0 | -1.5
COC(=O)C1=C(C)OC(N)=C(C#N)C12C(=O)Nc1ccccc12 (configuration not stated) | · | -1.6
Cc1c(/C(CC(C)C)=N/O)c2ccccc2n1C | 13.0 | -1.2
O=C(Cn1c(-c2cccs2)cc2ccccc21)N1CCC2(CC1)OCCO2 | -4.0 | ·
c1ccc(CCNCc2ccc3c(c2)OCO3)cc1 | -12.0 | ·
O[C@H]1[C@H]2[C@H](O)CCCN2C[C@H]1O | · | -1.7
COc1ccc(OC)c(N2C(=O)NC(=O)C(CCc3ccccn3)(CCc3ccccn3)C2=O)c1 | 0.0 | -5.1
Cc1nn(C)c2c1c(-c1ccccc1)cc(=O)n2C(C)C(=O)N1CCC2(CC1)OCCO2 (configuration not stated) | -10.0 | ·
OC1C2CCCC1C(N1CCCC1)CC2 (configuration not stated) | 10.0 | ·
C=CCOC(=O)C1=C(C)OC(N)=C(C#N)C12C(=O)Nc1ccccc12 (configuration not stated) | · | 0.0
CC(Cc1ccccc1)NCc1ccccc1O (configuration not stated) | -15.0 | -3.1
O=C1OC(c2ccc(Cl)cc2)=N/C1=C\N1CC2CC(C1)c1cccc(=O)n1C2 (configuration not stated) | 1.0 | ·
CCCc1cc(OC(=O)N(C)C)nc(-c2cccc(C)c2)n1 | · | 0.7
COCC(=O)OCC1CCCN2CCCCC12 (configuration not stated) | -3.0 | 5.2
CC1(c2ccc3c(c2)OCCO3)NC(=O)N(CN2CC=C(c3ccccc3)CC2)C1=O (configuration not stated) | -2.0 | ·
Cn1cc(C(=O)O)c2ccccc21 | · | -1.0
